ID4 binder: binds human ID4 protein on microarray; P47928; hit rate 1.2% among 31,000; small molecule microarray, Flag-ID4 binding, fluorescence F/B; calls only; AID 624137;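 active = spot signal over background at p below 0.07 in all four prints; compounds were printed on slides so no solution concentration is given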;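 also: a binder raises fluorescence above local background on the spot; about 2 pmol printed per array spot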
Target sequence (P47928 whole entry, looked up): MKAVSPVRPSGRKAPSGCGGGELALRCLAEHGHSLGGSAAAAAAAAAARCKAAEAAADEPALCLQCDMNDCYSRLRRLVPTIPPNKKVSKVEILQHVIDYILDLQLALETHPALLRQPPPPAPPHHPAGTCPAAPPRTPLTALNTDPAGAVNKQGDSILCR
Calls only. These rows are one share of the data, so the mix of outcomes need not match the whole.

Results for C=C1C(=O)O[C@@H]2C[C@@]3(C)[C@@H](O)C[C@@H](O)C(=C)[C@@H]3C[C@H]12 ?
ID4 binder: inactive

How did Cc1ccc(NC(=O)CSc2nc3cc(Cl)ccc3s2)c(C)c1 do in these assays?
ID4 binder: inactive

What do the screens show for `CC(=O)O[C@@H]1C[C@@]2(C)C(CC[C@@H]2C(C)=O)C2CCC3=CC(=O)CC[C@]3(C)C21` (stereo not given in full)?
ID4 binder: inactive

What do the screens show for `COc1ccc(C#Cc2cnc3c(c2)C(=O)N([C@H](C)CO)C[C@@H](C)[C@H](CN(C)C)O3)cc1`?
ID4 binder: inactive

How did N#C[C@@H]1[C@@H](c2ccccc2)[C@@H](CO)N1C(=O)Cc1ccccc1 do in these assays?
ID4 binder: inactive

Results for CCN(/C=N/c1sc2c(c1C#N)CCCCC2)CC ?
ID4 binder: inactive

What do the screens show for `Cc1cccc(CN(C)C[C@H]2OCc3cnnn3CCCC(=O)N([C@@H](C)CO)C[C@@H]2C)c1`?
ID4 binder: inactive

Results for C[C@H](CO)N1C[C@H](C)[C@@H](CN(C)Cc2ccccc2)Oc2ncc(-c3cccnc3)cc2C1=O ?
ID4 binder: inactive

Results for Cc1ccc(C)c(NC(=O)CCn2cnc3ccccc3c2=O)c1 ?
ID4 binder: inactive

What do the screens show for `COC(=O)c1cc(-c2ccccc2)sc1NC(=O)c1cc(-c2cccnc2)nc2ccccc12`?
ID4 binder: inactive

How did C[C@H](CO)N1C[C@H](C)[C@@H](CN(C)Cc2ccccn2)Oc2ncc(-c3ccccc3)cc2C1=O do in these assays?
ID4 binder: inactive

What do the screens show for `COc1ccc(Cl)cc1NC(=S)NCCCn1nc(C)c(Br)c1C`?
ID4 binder: inactive

How did COCC(=O)N(C)C[C@H]1Oc2ncc(C#Cc3cccnc3)cc2C(=O)N([C@H](C)CO)C[C@@H]1C do in these assays?
ID4 binder: inactive

Results for CCCN(C)C[C@@H]1Oc2cc(C#CCC3CCCC3)ccc2S(=O)(=O)N([C@H](C)CO)C[C@@H]1C ?
ID4 binder: inactive

Results for O=C(C[C@@H]1C=C[C@H](NC(=O)c2cccc(F)c2)[C@@H](CO)O1)NCc1ccccc1 ?
ID4 binder: inactive

Results for COc1ccc(OC)c(NC(=O)CN(c2cc(C(F)(F)F)ccc2Cl)S(C)(=O)=O)c1 ?
ID4 binder: inactive

What do the screens show for `C[C@@H]1CN([C@@H](C)CO)C(=O)c2cc(-c3ccccc3)cnc2O[C@@H]1CN(C)C(=O)Cc1ccccc1`?
ID4 binder: inactive

How did COC(=O)c1sc(NC(=S)Nc2ccc(Cl)cn2)c(C(=O)OC)c1C do in these assays?
ID4 binder: inactive

How did CCn1c(SCC(=O)Nc2cccc(C)c2C)nnc1-c1cccs1 do in these assays?
ID4 binder: inactive

Results for C[C@@H]1CN([C@H](C)CO)C(=O)c2cc(/C=C/c3ccccc3)cnc2O[C@H]1CN(C)C(=O)CN(C)C ?
ID4 binder: inactive

Results for C[C@H]1CN([C@@H](C)CO)C(=O)c2cc(NC(=O)C3CCCCC3)ccc2O[C@H]1CN(C)C ?
ID4 binder: inactive

What do the screens show for `COc1ccc(N2C(=O)CC(SCC(=O)Nc3ccccc3F)C2=O)cc1` (stereo not given)?
ID4 binder: inactive

Results for COc1ccccc1-c1ccc2c(c1)O[C@@H](CN(C)S(=O)(=O)c1ccc(F)cc1)[C@H](C)CN([C@H](C)CO)S2(=O)=O ?
ID4 binder: inactive

How did Cc1ccc(NS(=O)(=O)c2cc(C(=O)Nc3cccc(N(C)S(C)(=O)=O)c3)ccc2C)c(C)c1 do in these assays?
ID4 binder: inactive

How did O=C(C[C@H]1C=C[C@H](NS(=O)(=O)c2ccccc2)[C@H](CO)O1)NCc1ccc(Cl)c(Cl)c1 do in these assays?
ID4 binder: inactive

What do the screens show for `O=C(COc1ccc2ccccc2c1)Nc1ccccc1-c1nc2ccccc2s1`?
ID4 binder: inactive

What do the screens show for `CCCN(C)C[C@H]1Oc2cc(-c3cccc(OC)c3)ccc2S(=O)(=O)N([C@H](C)CO)C[C@H]1C`?
ID4 binder: inactive

How did O=C(O)C[C@H]1C=C[C@@H](NC(=O)Nc2ccccc2)[C@H](CO)O1 do in these assays?
ID4 binder: inactive

How did COc1cc(OC)c(NC(=O)CCCN2C(=O)c3ccccc3C2=O)cc1Cl do in these assays?
ID4 binder: inactive

What do the screens show for `CCn1c(SCC(=O)c2ccc(OC)cc2)nnc1-c1cc2cccc(OC)c2o1`?
ID4 binder: inactive

How did CCN(CC(=O)Nc1cccc(OC)c1)S(=O)(=O)c1ccc(C)cc1 do in these assays?
ID4 binder: inactive

What do the screens show for `Cc1ccc2oc(-c3cc(NC(=O)COc4ccccc4)ccc3Cl)nc2c1`?
ID4 binder: inactive

Results for O=C1c2ccccc2C(=O)N1CCCc1nc(-c2ccccn2)no1 ?
ID4 binder: inactive

What do the screens show for `Cc1ccc(-n2nc(C)c3c(C)onc3c2=O)cc1`?
ID4 binder: inactive

How did Cc1cc(NS(=O)(=O)c2ccc(NC(=O)C3COc4ccccc4O3)cc2)nc(C)n1 (stereo not given) do in these assays?
ID4 binder: inactive

What do the screens show for `C[C@H](CO)N1C[C@H](C)[C@@H](CN(C)C(=O)[C@H](C)c2ccccc2)OCc2ccccc2-c2ccccc2C1=O`?
ID4 binder: inactive

Results for CCC1=Nc2cc(C(=O)N(C)Cc3ccccc3)ccc2Sc2ccc(C)cc21 ?
ID4 binder: inactive

How did CCOc1ccc(-n2c(SCC(=O)c3ccccc3)nnc2-c2ccncc2)cc1 do in these assays?
ID4 binder: inactive

What do the screens show for `COc1ccc(C(=O)NCCNc2ccc([N+](=O)[O-])cc2)cc1`?
ID4 binder: inactive

How did CCCN(C)C[C@@H]1Oc2ncc(-c3cccc(C#N)c3)cc2C(=O)N([C@H](C)CO)C[C@@H]1C do in these assays?
ID4 binder: inactive

What do the screens show for `COCC(=O)N(C)C[C@H]1Oc2cc(C#CC3CCCC3)ccc2S(=O)(=O)N([C@@H](C)CO)C[C@H]1C`?
ID4 binder: inactive

Results for Cc1c(NC(=O)CSc2n[nH]c(-c3ccccc3)n2)c(=O)n(-c2ccccc2)n1C ?
ID4 binder: inactive

What do the screens show for `C[C@H](CO)N1C[C@H](C)[C@@H](CN(C)C)Oc2ncc(C#Cc3ccccc3F)cc2C1=O`?
ID4 binder: inactive

Results for Cc1noc(C)c1NC(=O)N(C)C[C@@H]1OCc2ccccc2-c2c(n(C)c3ccccc23)C(=O)N([C@@H](C)CO)C[C@@H]1C ?
ID4 binder: inactive

Results for COc1ccc(NC(=O)CSc2nccc(=O)[nH]2)cc1Cl ?
ID4 binder: inactive

Results for C/C=C/c1cnc2c(c1)C(=O)N([C@H](C)CO)C[C@@H](C)[C@H](CN(C)Cc1ccccc1F)O2 ?
ID4 binder: inactive

Results for C[C@H](CO)N1C[C@H](C)[C@H](CN(C)S(=O)(=O)c2cn(C)cn2)OCc2ccccc2-c2ccccc2C1=O ?
ID4 binder: inactive

Results for NC(=O)CSc1oc(-c2ccc(F)cc2)nc1S(=O)(=O)c1ccc(Cl)cc1 ?
ID4 binder: inactive

Results for COc1ccc(N(C(C)C(=O)Nc2ccc(Cl)c(Cl)c2)S(C)(=O)=O)cc1 (stereo not given) ?
ID4 binder: inactive

How did COCCOC(=O)N1C(=O)[C@@]2(c3cc(C#CC4=CCCCC4)ccc31)[C@H](c1ccccc1OCCO)N1[C@H](c3ccccc3)[C@H](c3ccccc3)OC(=O)[C@H]1[C@@H]2C(=O)NC[C@H](O)c1ccccc1 do in these assays?
ID4 binder: inactive

What do the screens show for `CN(CC(=O)Nc1ccc2c(c1)OCCO2)S(=O)(=O)c1cc(Cl)ccc1Cl`?
ID4 binder: inactive

How did COc1ccc(C)cc1NC(=O)c1ccccc1NS(=O)(=O)c1cccc2cccnc12 do in these assays?
ID4 binder: inactive

What do the screens show for `COc1ccc(C#Cc2ccc3c(c2)O[C@@H](CN(C)C)[C@@H](C)CN([C@H](C)CO)S3(=O)=O)cc1`?
ID4 binder: inactive

What do the screens show for `CC(C)C#Cc1cnc2c(c1)C(=O)N([C@@H](C)CO)C[C@@H](C)[C@@H](CN(C)C(=O)C1CCC1)O2`?
ID4 binder: inactive

How did Cc1cc(C)c2oc(-c3cccc(NC(=O)COc4ccccc4Cl)c3C)nc2c1 do in these assays?
ID4 binder: inactive

How did CC(C)(C)C1CCc2c(sc(NC(=O)COc3ccccc3Cl)c2C(N)=O)C1 (stereo not given) do in these assays?
ID4 binder: inactive

Results for C[C@H]1CN([C@@H](C)CO)C(=O)c2cc(-c3cccc(F)c3)cnc2O[C@@H]1CN(C)Cc1ccccn1 ?
ID4 binder: inactive

How did C[C@H](CO)N1C[C@H](C)[C@H](CN(C)Cc2ccncc2)Oc2ncc(C#CC3CCCCC3)cc2C1=O do in these assays?
ID4 binder: inactive

What do the screens show for `COc1cc2c(cc1NC(=O)Cc1ccccc1[N+](=O)[O-])oc1ccccc12`?
ID4 binder: inactive

How did Cc1ccc(S(=O)(=O)c2nc(-c3cccs3)oc2NCc2cccnc2)cc1 do in these assays?
ID4 binder: inactive

What do the screens show for `CCOc1ccccc1NC(=O)CC1NCCNC1=O` (stereo not given)?
ID4 binder: inactive

What do the screens show for `Nc1nc(SCC(=O)c2ccc(Oc3ccccc3)cc2)n[nH]1`?
ID4 binder: inactive

How did C[C@@H]1CN([C@@H](C)CO)C(=O)c2cc(C3=CCCCC3)cnc2O[C@@H]1CN(C)C(=O)c1ccccc1 do in these assays?
ID4 binder: inactive

What do the screens show for `C[C@H](CO)N1C[C@H](C)[C@@H](CN(C)Cc2ccc(Cl)c(Cl)c2)OCc2cnnn2CCCC1=O`?
ID4 binder: inactive

How did CN(C)CC(=O)Nc1ccc2c(c1)[C@@H]1C[C@@H](CC(=O)NCc3ccc4c(c3)OCO4)O[C@@H](CO)[C@@H]1O2 do in these assays?
ID4 binder: inactive

Results for Cc1ccc(C(C)C)c(OCC(=O)Nc2cccc3ncccc23)c1 ?
ID4 binder: inactive

Results for O=C(CSc1nnc(-c2ccc(Cl)cc2)o1)Nc1ccccc1 ?
ID4 binder: inactive

How did COc1cccc2cc(-c3nnc(SCC(=O)Nc4cccc(SC)c4)n3C)oc12 do in these assays?
ID4 binder: inactive

Results for C[C@H](CO)N1C[C@H](C)[C@@H](CN(C)Cc2ccccc2)OCc2ccccc2-c2ccccc2C1=O ?
ID4 binder: inactive

Results for COc1ccc(C(=O)C(C)Oc2cccc(NC(=O)c3cccc([N+](=O)[O-])c3)c2)cc1 (stereo not given) ?
ID4 binder: inactive

How did Cc1ccccc1-n1nnnc1SCC(=O)Nc1cccc(Cl)c1Cl do in these assays?
ID4 binder: inactive

What do the screens show for `COc1ccc(OC)c(S(=O)(=O)Nc2ccc(C(=O)O)cc2)c1`?
ID4 binder: inactive

What do the screens show for `CCCC#Cc1ccc2c(c1)O[C@H](CN(C)C)[C@@H](C)CN([C@H](C)CO)S2(=O)=O`?
ID4 binder: inactive

How did COC(=O)c1ccccc1NC(=O)COc1ccc(C(C)(C)C)cc1Br do in these assays?
ID4 binder: inactive

What do the screens show for `C[C@H](CO)N1C[C@H](C)[C@H](CN(C)C(=O)c2ccc3c(c2)OCO3)Oc2cc(-c3cncnc3)ccc2S1(=O)=O`?
ID4 binder: inactive

How did CC(Sc1nc2ccccc2[nH]1)C(=O)Nc1ccc(S(N)(=O)=O)cc1 (stereo not given) do in these assays?
ID4 binder: inactive

Results for C[C@H](CO)N1C[C@H](C)[C@@H](CN(C)C)Oc2ccc(NC(=O)Cc3cn(C)c4ccccc34)cc2C1=O ?
ID4 binder: inactive

What do the screens show for `CNC[C@H]1Oc2cc(C#Cc3cccc(F)c3)ccc2S(=O)(=O)N([C@H](C)CO)C[C@@H]1C`?
ID4 binder: inactive

Results for Cc1ccc(N(CC(=O)Nc2ccc(F)cc2)S(C)(=O)=O)cc1 ?
ID4 binder: inactive

Results for COc1ccc(S(=O)(=O)N(C)CC(=O)Nc2cccc(SC)c2)cc1Cl ?
ID4 binder: inactive

How did CC1(C)CC(=O)C2=C(C1)N(CCc1ccccc1)C(=O)C2(NC(=O)c1cccnc1)C(F)(F)F (stereo not given) do in these assays?
ID4 binder: inactive

Results for CN1CCN(C(=O)C[C@@H]2CC[C@@H](NC(=O)Nc3ccccc3F)[C@@H](CO)O2)CC1 ?
ID4 binder: inactive

How did CC(=O)Oc1ccccc1C(=O)Oc1ccccc1C(=O)O do in these assays?
ID4 binder: inactive

Results for COC(=O)c1ccc(Cl)c(NC(=O)C(C)N(c2ccc(C)cc2)S(C)(=O)=O)c1 (stereo not given) ?
ID4 binder: inactive

What do the screens show for `C=C1CCC[C@]2(C)CC[C@@](O)(C(=C)C(=O)O)C[C@@H]12`?
ID4 binder: inactive

What do the screens show for `O=C(COc1ccccc1Cl)Nc1cccc(-c2nc3ncccc3o2)c1`?
ID4 binder: inactive

How did COC(=O)c1c(C)[nH]c(C(=O)CSc2nnc3cc(C)c4ccccc4n23)c1C do in these assays?
ID4 binder: inactive

Of the compounds above, these have two or more sulfur atoms:
How did Cc1ccc(NC(=O)CSc2nc3cc(Cl)ccc3s2)c(C)c1 do in these assays?
ID4 binder: inactive

How did COC(=O)c1sc(NC(=S)Nc2ccc(Cl)cn2)c(C(=O)OC)c1C do in these assays?
ID4 binder: inactive

How did CCn1c(SCC(=O)Nc2cccc(C)c2C)nnc1-c1cccs1 do in these assays?
ID4 binder: inactive

Results for COc1ccccc1-c1ccc2c(c1)O[C@@H](CN(C)S(=O)(=O)c1ccc(F)cc1)[C@H](C)CN([C@H](C)CO)S2(=O)=O ?
ID4 binder: inactive

How did Cc1ccc(NS(=O)(=O)c2cc(C(=O)Nc3cccc(N(C)S(C)(=O)=O)c3)ccc2C)c(C)c1 do in these assays?
ID4 binder: inactive

Results for NC(=O)CSc1oc(-c2ccc(F)cc2)nc1S(=O)(=O)c1ccc(Cl)cc1 ?
ID4 binder: inactive

How did Cc1ccc(S(=O)(=O)c2nc(-c3cccs3)oc2NCc2cccnc2)cc1 do in these assays?
ID4 binder: inactive

How did COc1cccc2cc(-c3nnc(SCC(=O)Nc4cccc(SC)c4)n3C)oc12 do in these assays?
ID4 binder: inactive

How did CC(Sc1nc2ccccc2[nH]1)C(=O)Nc1ccc(S(N)(=O)=O)cc1 (stereo not given) do in these assays?
ID4 binder: inactive

Results for COc1ccc(S(=O)(=O)N(C)CC(=O)Nc2cccc(SC)c2)cc1Cl ?
ID4 binder: inactive
